Assay outcomes from PubChem.
GLA inh pH 4.5 = blocks human alpha-galactosidase A at pH 4.5; P06280; purified enzyme, 4-MU-alpha-Gal fluorescence, pH 4.5; activity change, negative = inhibition, % at 105 µM; 230,000 tested, under 10 active; AID 1467; inconclusive = small, poorly fitted or top-dose-only inhibition, or a rising curve; inactive = flat fitted curve, though single readings scatter; no compound was filed as active;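 also: 0% = full activity with enzyme and -100% = basal without enzyme; dose as in the result columns while the protocol names 77 µM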
Rango release inh = prevents RanGTP from dissociating the Rango-importin beta complex; O95149+P62826; Biochemical FRET Rango-importin beta, RanGTP-induced dissociation; Potency, µM (top dose mostly 46.1 µM), for the others: at the highest dose activity change, negative = inhibition; actives 0.071% (n = 340,000); active means falling FRET ratio curve, often poorly fitted, with flat reads before Ran was added; inconclusive means other falling curves, or compound fluorescence or quenching; inactive means flat or rising ratio curve;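 also: potency is read from the fitted curve at half-maximal effect; % of control where 0% means no effect; nearly all actives have a fitted effect of over 45% in size; -100% = wells without RanGTP and RCC1; the record marks most hits as doubtful in a second field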
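Compounds sat 5 min at room temperature with 0.1 uM Rango biosensor plus 0.25 uM importin beta, then FRET pre-read. RanGTP-RCC1 (0.6 uM Ran, 2mM GTP, 0.2 uM RCC1) added for 45 min, and the CFP/YFP post-read measured blocked complex dissociation.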
miR-21 FLuc = raises the signal of a miR-21 reporter | HeLa miR-21 FLuc reporter, luciferase, 48 h | Potency, µM (top dose mostly 38.3 µM), inactives show at the top dose reporter change, positive = more light | 340,000 tested, under 10 active; active = well fitted rising curve with a large enough effect; inconclusive = small, poorly fitted or top-dose-only effect; inactive = no such curve, though single readings can be large or run the other way;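 also: % of control where 0% means no effect; miR-21 action dims this reporter so a rising signal means less miR-21 action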
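Using DMEM plus 10% FBS, HeLa miR-21-FLuc cells are incubated with test compounds (final up to about 40uM) for 48 hours; firefly luciferase signal is then imaged following reagent-mediated lysis.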
Rango-impB inh = inhibitors of Rango-importin beta complex formation; Potency, µM (top dose mostly 92.2 µM), for inactives: at the top dose inhibition of complex formation; AID 540263; actives 0.031% (n = 340,000); Q14974; Rango CFP/YFP FRET sensor + importin beta, 45 min; active = rising FRET ratio curve, often small or poorly fitted; inconclusive = mostly compound fluorescence or quenching in the first reads; inactive = flat curves in all reads;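 also: potency is read from the fitted curve at half-maximal effect; 0% = DMSO wells and 100% = buffer wells lacking importin beta; nearly all actives have a fitted effect of over 15% in size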
Target sequence (Q14974 whole entry, looked up): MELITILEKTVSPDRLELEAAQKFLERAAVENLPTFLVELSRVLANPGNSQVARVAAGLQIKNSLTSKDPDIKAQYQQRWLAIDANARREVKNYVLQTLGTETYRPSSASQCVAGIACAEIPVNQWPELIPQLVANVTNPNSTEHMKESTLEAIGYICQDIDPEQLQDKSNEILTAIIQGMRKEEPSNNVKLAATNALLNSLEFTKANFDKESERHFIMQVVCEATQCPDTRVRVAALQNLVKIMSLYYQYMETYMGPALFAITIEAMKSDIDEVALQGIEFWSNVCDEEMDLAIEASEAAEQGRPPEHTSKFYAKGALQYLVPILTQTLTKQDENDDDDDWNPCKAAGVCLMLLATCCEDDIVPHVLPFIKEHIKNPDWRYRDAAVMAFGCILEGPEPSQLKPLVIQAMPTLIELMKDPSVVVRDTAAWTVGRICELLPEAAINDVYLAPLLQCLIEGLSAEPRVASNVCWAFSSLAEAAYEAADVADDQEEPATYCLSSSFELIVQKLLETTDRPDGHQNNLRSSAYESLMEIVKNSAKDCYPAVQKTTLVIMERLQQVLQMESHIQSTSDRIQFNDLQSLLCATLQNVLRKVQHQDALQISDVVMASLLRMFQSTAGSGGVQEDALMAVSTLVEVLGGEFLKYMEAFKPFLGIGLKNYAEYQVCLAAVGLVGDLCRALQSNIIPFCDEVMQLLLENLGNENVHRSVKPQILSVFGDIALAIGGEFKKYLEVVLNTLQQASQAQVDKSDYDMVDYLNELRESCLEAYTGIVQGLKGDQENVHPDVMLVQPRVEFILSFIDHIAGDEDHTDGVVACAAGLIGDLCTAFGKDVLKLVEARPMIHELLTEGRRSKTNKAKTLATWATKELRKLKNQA
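FRET biosensor (snurportin 1 IBB flanked by EYFP and cerulean), 50 nM, with compound 5 min, then 0.125 microM importin beta in PBS, 1 mM DTT, 0.02% Tween-20, 0.1% BSA. CFP/YFP ratio read after 45 min at room temperature; pre-read flags interference.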
The depositor's hits bear a star; ? = inconclusive; nt = not tested or not shown; [ ] = remark or other dose. These rows are one share of the data, so the mix of outcomes need not match the whole.

SMILES	GLA inh pH 4.5	Rango release inh	miR-21 FLuc	Rango-impB inh
CCOc1ccc(NC(=O)N2CCC(n3nnc4ccccc43)CC2)cc1	9	13%	0%	0.1%
COc1cccc2c1Oc1ncccc1N(C(=O)CCC(=O)NCc1ccccc1)C2	nt	?	-2%	1.3%
Cc1ccc(OCC(=O)N/N=C\c2ccco2)c(C)c1	0	-12%	-22%	-4.7%
O=C(NCc1ccccc1)N1CCC(n2cnc3cc(F)ccc32)CC1	1	2%	-8%	-1.7%
CC(C)CC(=O)N1CCN(CC2CC=CCC2)CC1 (stereo not drawn)	1	-13%	-3%	0.1%
CN(C(=O)CSc1nc(O)cc(=O)n1C1CCCC1)c1ccccc1	-2	2%	0%	-3.7%
COc1cc(NC(=O)N2c3ccccc3Sc3ccccc32)c(C(=O)O)cc1OC	nt	-3%	-3%	-5.8%
CCNS(=O)(=O)c1ccc(CCC(=O)NCc2ccncc2)cc1	nt	-11%	4%	4.7%
CCC(O)c1nc2ccccc2n1CCc1ccccc1 (stereo not drawn)	nt	0%	-1%	1.7%
O=c1oc(-c2cccs2)nc2sc3c(c12)CCC3	-1	?	-1%	-4.4%
COc1ccc(NC(=O)C2CCC(CNC(=O)[C@@H]3Cc4ccccc4CN3)CC2)cc1 (stereo partly drawn)	nt	0%	-2%	1.7%
CN(CCO)c1cc(NCCCN2CCC(Cc3ccccc3)CC2)c2nonc2c1[N+](=O)[O-]	-5	-5%	1%	-1.8%
O=C(c1ccc(-c2ccc([N+](=O)[O-])cc2)o1)N1CCCC(C(F)(F)F)C1 (stereo not drawn)	nt	-12%	nt	-2.2%
CC(Oc1ccccc1)C(=O)NC1CC(C)(C)NC(C)(C)C1 (stereo not drawn)	2	1%	0%	1.1%
CC(C)NC(=O)NC(=O)CSc1nnc(-c2ccccc2F)n1N	4	-11%	0%	-0.5%
COc1ccc(N2C(=O)C3C(c4ccc(OC)cc4O)NC(Cc4ccccc4)(C(=O)O)C3C2=O)cc1 (stereo not drawn)	-10	16%	-5%	5.4%
CC[C@H]1OC(=O)[C@H](C)[C@@H](O[C@H]2C[C@@](C)(OC)[C@@H](O)[C@H](C)O2)[C@H](C)[C@@H](O[C@@H]2O[C@H](C)C[C@H](N(C)C)[C@H]2O)[C@](C)(OC)C[C@@H](C)C(=O)[C@H](C)[C@@H](O)[C@]1(C)O	2	50%	0%	1.1%
COc1ccc(COc2cccc(C=O)c2)cc1	nt	11%	nt	-3.7%
COc1ccc(S(=O)(=O)Nc2ccc(C)c(S(=O)(=O)N3CCOCC3)c2)cc1[N+](=O)[O-]	nt	5%	nt	1.4%
CCCN1CCN(S(=O)(=O)c2ccc3c(c2)NC(=O)C(C)C(=O)N3)CC1 (stereo not drawn)	nt	9%	0%	0.3%
Cc1ccc(S(=O)(=O)N2C(=O)CCC2C(=O)Nn2cnnc2)cc1 (stereo not drawn)	-1	13%	-2%	0.0%
Cc1noc(C)c1NC(=O)Nc1ccc2c(c1)C(=O)N([C@H](C)CO)C[C@H](C)[C@H](CN(C)C)O2	nt	34%	nt	-3.1%
O=C(O)c1ccc2c(c1)C(c1ccccc1)OC2=O (stereo not drawn)	-11	-5%	-2%	0.1%
O=C(CSc1cn[nH]n1)Nc1cccc(C(=O)O)c1	nt	-12%	0%	-1.6%
CC1(C)CC(=O)C=C(NCc2cccnc2)C1	7	-7%	0%	?
Other entries.
SMILES	GLA inh pH 4.5	Rango release inh	miR-21 FLuc	Rango-impB inh
O=c1[nH]c(CSc2nnnn2-c2ccccc2)nc2ccccc12	5	-3%	-8%	4.5%
Cc1cccc(C(CC(=O)NCc2ccco2)c2ccccc2)c1O (stereo not drawn)	-18	-1%	3%	-3.2%
CN(CC(=O)NCc1ccco1)CC(=O)Nc1c(Cl)cccc1Cl	nt	12%	nt	1.1%
Cc1nnsc1S(=O)(=O)Cc1ccccc1Cl	-4	-13%	-2%	-1.0%
O=C(OCC(=O)N1CCCCCC1)c1ccc(Cl)c(S(=O)(=O)N2CCCC2)c1	-4	-8%	0%	0.1%
O=C(CSc1nnc(NC(=O)c2ccc(F)cc2F)s1)NC1CC1	nt	-9%	-9%	3.1%
CCn1c(C(C#N)/C(=N\S(=O)(=O)c2cccs2)c2ccccc2)nc2ccccc21 (stereo not drawn)	11	-1%	-4%	0.6%
O=C(COC(=O)CC1CC2CCC1C2)NCc1ccc(Cl)cc1 (stereo not drawn)	nt	15%	nt	-2.2%
Cc1ccc(C)c2sc(NC(=O)c3ccc(N4CCCCC4)c([N+](=O)[O-])c3)nc12	-9	0%	-1%	0.1%
COc1cc([N+](=O)[O-])cc(/C=N/NC(=O)Cn2nc(C)cc2C)c1O	-3	-17%	5%	-1.4%
Cc1cccc(NC(=O)c2c(O)c3ccccc3n(C)c2=O)c1	nt	-9%	-53%	1.1%
O=C(CNC(=O)c1ccccn1)N=Nc1c(O)[nH]c2ccccc12	nt	8%	-31%	-0.9%
CC1CN(CC(O)COC(c2ccccc2)c2ccccc2)CC(C)O1 (stereo not drawn)	5	8%	-6%	7.7%
CN1CC=C2C(C#N)=C(N)C(C#N)(C#N)C(CCc3ccccc3)C2C1 (stereo not drawn)	0	?	0%	?
CC(=O)Oc1ccc(/C=N/NS(=O)(=O)c2ccccc2)cc1	0	8%	2%	-1.2%
O=S(=O)(c1ccc(Cl)cc1)N1CCN(C(=S)NCC2CCCO2)CC1 (stereo not drawn)	nt	-3%	0%	-0.7%
CN(C)CCn1cnc2c(c1=N)C(c1ccccc1)c1ccc3ccccc3c1O2 (stereo not drawn)	nt	2%	4%	2.6%
COC(=O)[C@H](Cc1ccccc1)N1C/C=C\COc2c(Cl)cc(Cl)cc2S1(=O)=O	nt	22%	nt	2.7%
COCCn1c(SCC(=O)NC(=O)NC(C)(C)C)nc2ccccc21	6	11%	3%	2.4%
CCOC(=O)c1c(C)[nH]c2cc(Br)c(OC)cc12	1	3%	-38%	-1.2%
Cc1nn(-c2ccccc2)c(Cl)c1C(=O)NNC(=O)c1ccccc1O	nt	1%	nt	0.3%
Nc1nnn(CC(=O)N/N=C/c2ccccc2Cl)n1	1	0%	-2%	1.9%
O=C(N/N=C/c1ccco1)c1cc(-c2cccc(Br)c2)nc2ccccc12	1	?	10%	?
Cc1ccc(NC(=O)COC(=O)c2ccco2)cc1S(=O)(=O)N1CCOCC1	nt	-8%	nt	-3.0%
Cc1ccc(C(c2nnnn2C(C)(C)C)N2CCC(C)CC2)cc1 (stereo not drawn)	-7	-2%	-6%	-2.9%
Further structures follow.
SMILES	GLA inh pH 4.5	Rango release inh	miR-21 FLuc	Rango-impB inh
CCSc1nnc(-c2cccnc2)n1-c1ccc(Cl)c(C)c1	2	4%	-7%	-2.1%
Cc1nc(NC(=O)c2c(-c3ccccc3Cl)noc2C)sc1C	nt	-13%	19%	-4.7%
COc1ccc(CCNC(=O)CC2COc3ccccc3O2)cc1OC (stereo not drawn)	-9	3%	-9%	2.5%
c1ccc(-c2c[nH]c(-c3ccccc3)c2)cc1	nt	1%	nt	1.2%
CC(C)(C)NC(=O)N1CCN(S(=O)(=O)c2ccc3c(c2)CCC3)CC1	nt	0%	nt	-1.0%
Cc1oc2c(C)c3oc(=O)c(CC(=O)N[C@@H](CC(C)C)C(=O)N[C@@H](Cc4ccccc4)C(=O)O)c(C)c3cc2c1C	nt	-24%	-1%	?
COC(=O)c1c(NC(=O)c2nc3ncccn3n2)sc(C(=O)N(C)C)c1C	-4	nt	-1%	nt
COCCCNC(=O)CSC1=Nc2ccccc2C2=NC(CC(=O)NCc3ccccc3)C(=O)N12 (stereo not drawn)	-2	3%	0%	-0.2%
CC1CCCCC12NC(=O)N(CC(=O)OCc1c(F)cccc1Cl)C2=O (stereo not drawn)	nt	1%	nt	1.3%
O=S(=O)(Nc1ccc(S(=O)(=O)N2CCCCCC2)cc1)c1cccs1	12	-16%	-1%	1.4%
COCCNC(=O)Cn1nc(C)c2ccccc2c1=O	-6	0%	-5%	-2.8%
CCN(CC)C(=O)c1sc2nc(-c3ccc(OC)cc3)cn2c1C	2	-5%	-54%	12%
O=C(CNC(=O)c1ccccc1)NC1(C(=O)NC2CCCCC2)CCCCC1	7	0%	2%	-1.8%
COc1ccc(S(=O)(=O)NCc2ccccn2)c(Cl)c1Cl	0	2%	-3%	4.7%
Cc1nc2cc(NC(=O)c3ccc([N+](=O)[O-])s3)ccc2s1	nt	0%	-18%	4.1%
COc1ccc(C(=O)Nn2c(SCC(=O)N3CCC(C)CC3)nc3ccccc3c2=O)cc1	4	-4%	28%	13%
Cc1cccc(NC(=O)CSCC(=O)N(C)Cc2c(F)cccc2Cl)c1	nt	-1%	nt	-4.0%
COc1ccc(S(=O)(=O)N(CC(=O)NCc2ccco2)c2ccccc2)cc1	3	11%	2%	1.8%
CC(C)N1C(=S)SC(C)(C)C1n1oc(=O)n(-c2cccc(Cl)c2)c1=O (stereo not drawn)	-5[21.1 µM]	9%	-1%	1.2%
Cc1cc(O)c(NC(=O)c2cccc([N+](=O)[O-])c2)cc1C	6	-15%	-39%	-0.3%
COCCNC(=O)c1csc(Nc2cccc3ccccc23)n1	nt	-13%	-12%	-0.7%
CCC(=O)Oc1ccc2c(c1)OC1(OC(C)=O)OC(C)CC1=C2C (stereo not drawn)	?	?	-7%	?
NC(=S)Cc1ccccc1Cl	5	-3%	6%	-0.2%
CS(=O)(=O)N(CC(=O)NCc1ccncc1)C1CCCCC1	11	6%	-1%	1.1%
Cc1ccc(S(=O)(=O)Nc2cc(Cl)c(O)cc2C)cc1	-4	-3%	2%	0.2%

Six of the entries above in order of their number in GLA inh pH 4.5, descending:
SMILES	GLA inh pH 4.5	Rango release inh	miR-21 FLuc	Rango-impB inh
CS(=O)(=O)N(CC(=O)NCc1ccncc1)C1CCCCC1	11	6%	-1%	1.1%
COc1ccc(S(=O)(=O)N(CC(=O)NCc2ccco2)c2ccccc2)cc1	3	11%	2%	1.8%
COc1ccc(S(=O)(=O)NCc2ccccn2)c(Cl)c1Cl	0	2%	-3%	4.7%
COCCCNC(=O)CSC1=Nc2ccccc2C2=NC(CC(=O)NCc3ccccc3)C(=O)N12 (stereo not drawn)	-2	3%	0%	-0.2%
Cc1ccc(S(=O)(=O)Nc2cc(Cl)c(O)cc2C)cc1	-4	-3%	2%	0.2%
COc1ccc(CCNC(=O)CC2COc3ccccc3O2)cc1OC (stereo not drawn)	-9	3%	-9%	2.5%

Remaining list, next part:
SMILES	GLA inh pH 4.5	Rango release inh	miR-21 FLuc	Rango-impB inh
Cn1c(SCC(=O)Nc2ccc(N3CCOCC3)cc2)nnc1C(F)(F)F	nt	?	nt	-0.8%
O=C(CCC(=O)N1CCOCC1)NCCc1ccccc1	nt	1%	nt	-0.5%
O=C(CC1(O)C(=O)Nc2ccccc21)c1ccc(-n2cccc2)cc1 (stereo not drawn)	-12	-1%	-8%	0.1%
Cc1cccc(N2CCN(C(=O)c3oc4ccc(Br)cc4c3C)CC2)c1C	nt	?	nt	-1.9%
Cc1ccc(C)c(N2CCN(C(=O)C3CCCCN3S(=O)(=O)c3ccc(F)cc3)CC2)c1 (stereo not drawn)	0	-4%	19%	0.3%
COc1ccc(CCNC(=S)N2CCC(C(=O)c3ccc(F)cc3)CC2)cc1OC	-2	16%	27%	1.8%
CC(C)(C)CC(=O)Nc1nnc(SCC(=O)NC2CCCCC2)s1	nt	5%	0%	1.2%
Cc1c(Cl)cccc1N(CC(=O)NC(C)c1ccccc1)S(C)(=O)=O (stereo not drawn)	nt	-6%	-1%	3.0%
O=c1c2ccccc2cnn1Cc1cccc(Br)c1	5	10%	-14%	11%
C=CCn1c(N)c(C(=O)OCC(C)C)c2nc3ccccc3nc21	?	?	-13%	?
COC(=O)c1ccc(SC2CCCCC2)c([N+](=O)[O-])c1	1	-6%	-3%	2.5%
CCOC(=O)C1CCN(C(=O)CSc2ccc(Br)cc2)CC1	-2	12%	4%	-1.0%
CCCn1c(N)c(C(=O)CSc2nc(N)cc(=O)[nH]2)c(=O)n(C)c1=O	nt	-8%	nt	1.1%
O=S(=O)(c1ccc(Cl)cc1)N1CCCCCC1	nt	-1%	-6%	-6.5%
